Screening data as filed in PubChem BioAssay.
TAR Tat displ: HIV-1 TAR-Tat binding disruption; HIV-1 TAR RNA, Tat peptide displacement FRET; hits give high values; z-score (test concentration not listed); 100,000 tested, 0.6% active;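 further: score is relative to mean and SD of negative controls; some compounds called inactive have numbers as strong as hits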
CDC25B CDK2 inh: human CDC25B-CDK2/CyclinA binding inhibition. 94,000 tested, 0.72% active. z-score (concentration not given with the values). AID 1259370. P30305+P24941. HTRF CDC25B-CDK2/CyclinA binding, anti-His/anti-Flag; hits give high values;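 further: score is relative to mean and SD of negative controls; strong numbers were not always called active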
An asterisk follows results filed as active; . = not tested or not shown.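 How the source made its calls: active means z-score from 3 up in half or more of its runs; inactive means the rest.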

SMILES	TAR Tat displ	CDC25B CDK2 inh
Cc1nn(-c2nncc(-c3ccc(F)cc3)n2)c2c1C(c1cc(F)ccc1F)CC(=O)N2 (stereo not drawn)	-0.12	-1.38
Cc1c(C2CCN(S(C)(=O)=O)CC2)c2ccccc2n1Cc1ccc(F)cc1	0.94	.
CC1CCCCN1CCNc1ccc2nnc(-c3ccccc3)n2n1 (stereo not drawn)	0.64	-0.49
COCCOC(=O)c1c(C)oc2cc(Br)c(OC/C=C/c3ccccc3)cc12	3.76	-0.55
Cc1ccc(S(=O)(=O)NCCc2nnc3ccc(SCc4ccccc4F)nn23)cc1	0.71	.
Cc1ccc(NS(=O)(=O)c2ccc(-c3cnc(C)o3)cc2)c(Br)c1	0.37	.
CCCCN(CC)C(=O)C1CCCN(c2ncnc3onc(C)c23)C1 (stereo not drawn)	1.02	.
CCc1c(CN2CCC(C)CC2)csc1C	0.34	.
O=C(O)CCC(=O)Nc1ccc(NC(=O)CCC(=O)O)cc1	.	2.34
CN(CCc1noc(-c2ccc(Cl)cc2)n1)S(=O)(=O)c1cn(C)cn1	-0.92	.
Cc1cc(C)c2c(=O)c3c(oc2c1)C(=O)N(CCO)C3c1cccc(O)c1 (stereo not drawn)	-0.77	0.16
CC(C)Cn1c(N2CCCCC2)nc2c1c(=O)[nH]c(=O)n2C	.	-1.98
Cc1cc(C(=O)Nc2c(C)n(C)n(-c3ccccc3)c2=O)on1	0.34	-0.76
CCOc1ccc(S(=O)(=O)N2CCN(c3ccc(OC)cc3)CC2)cc1-c1nc(C(C)C)no1	0.46	-2.24
CCCSCCCNC(=O)C1CCN(c2nnc(-n3c(C)ccc3C)s2)CC1	0.34	-0.59
CCOC(=O)c1c(C)csc1NS(=O)(=O)c1ccc(C)cc1	.	-1.17
COc1ccc(S(=O)(=O)NCc2cn3cccc(C)c3n2)cc1OC	.	-0.51
Cc1nn(CCCC(=O)NC(C)C)c(=O)c2c1sc1ccccc12	2	-1.69
Cc1ccc(-n2nnc(-c3nc(-c4cccs4)no3)c2N)c(C)c1	1.15	.
Cc1ccc(CNCc2ccc3c(c2)OCO3)cc1	2.11	-0.42
CCc1nc2nc(C)c(NS(=O)(=O)c3ccc(F)c(C)c3)c(=O)n2[nH]1	0.44	-0.8
c1ccc(Nc2c(-c3ccc(N4CCOCC4)cc3)nc3cnccn23)cc1	-0.41	-1.52
Cc1cc(C)c(NC(=O)CSc2nnc(Cn3c(=O)sc4ccccc43)n2C)c(C)c1	.	-1.14
Cc1nn(-c2ccc(F)cc2)c(-n2cccc2)c1C(=O)N1CCN(C(=O)c2ccco2)CC1	0.58	.
CCCS(=O)(=O)C1=C(N)OC(c2ccccc2)=C(C#N)C1c1ccc(Cl)cc1 (stereo not drawn)	.	-1.84
CS(=O)(=O)c1ccc2nc(NC(=O)CCCC(=O)O)sc2c1	-0.54	-0.33
Cc1cc(C)n(-c2cc(NC3CC3)ncn2)n1	-0.01	.
CCOC(=O)c1[nH]c(C)c(C(=O)NC(C)(C)C)c1C	.	0.17
C=CCN1C(=O)C(O)(CC(=O)c2ccc(OC)cc2)c2ccccc21 (stereo not drawn)	0.44	-0.26
C=C1c2cc(C)c(C)cc2NC(=O)N1c1ccc(C)cc1	.	-1.17
Cc1ccc(NCC(O)Cn2c(C)c(C)c3ccccc32)cc1C (stereo not drawn)	.	-1.88
COC(=O)c1c(C)oc(C)c1S(=O)(=O)NCCSCc1c(F)cccc1Cl	.	-1.3
Cc1ccc(C)c(S(=O)(=O)c2nnn3c2nc(NCCCOC(C)C)c2sccc23)c1	-1.01	.
CCC1(C)Cc2ccccc2-c2[nH]c(=O)n(-c3ccc(F)cc3)c(=O)c21 (stereo not drawn)	1.33	-2.37
CCCN1CCN(C(=O)C2CCN(c3nnc(-n4cccc4)s3)CC2)CC1	0.85	.
Cc1nc(-c2cccnc2)sc1CCNS(=O)(=O)c1cc(F)ccc1F	0.24	.
CCC(=O)N1CCc2cc(Br)cc(S(=O)(=O)N3CCCCC3)c21	.	1.97
Cc1ccc(NS(=O)(=O)c2ccc3c(c2)NC(=O)C(C)CS3)cc1C (stereo not drawn)	1.4	.
COC(=O)c1sc(N2C(=O)c3oc4ccccc4c(=O)c3C2c2ccc(O)cc2)nc1C (stereo not drawn)	-0.62	-2.01
O=C1CSc2ccc(S(=O)(=O)N3CCc4ccccc43)cc2N1	-1.33	.
CCCNc1c(-c2cc(C)c(C)cc2C)c(=O)c1=O	-0.61	.
Cn1c2ccccc2n2c(=O)cc(-c3ccccc3)c(C#N)c12	.	-1.59
CCOC(=O)/C(=N\Nc1ccccc1)C(C)=N	.	-2.34
COC(=O)c1cc(-c2ccc(Cl)cc2)c2c(=O)[nH]c(=O)n(C)c2n1	1.19	-3.83
O=C(CN1c2ccccc2NC2=C(C(=O)CCC2)C1c1ccco1)NC1CCCC1 (stereo not drawn)	-9.61	.
CCOc1ccc(CNS(=O)(=O)c2cn(C)cn2)cc1OC	1.47	.
Cc1ccccc1Cn1c(C(O)c2ccccc2)nc2ccccc21 (stereo not drawn)	1.13	-1.63
CC(=O)N1c2ccccc2CC1C(=O)NCCSCc1ccco1 (stereo not drawn)	1.47	.
Cc1cc(NCCC(C)C)n2ncc(-c3ccc(F)cc3)c2n1	0.32	-1.02
CC(=O)N1c2ccc(S(=O)(=O)Nc3ccc(Br)cc3C)cc2CC1C (stereo not drawn)	-0.05	.
CCOC(=O)c1nn(-c2ccccc2Cl)cc(Sc2nnc(C(F)(F)F)n2C)c1=O	.	-1.39
Cc1cc(C)cc(Nc2nc3ccccc3c3nnc(C)n23)c1	1.29	-1.19
CCCCC12CN3CC(C)(CN(C1)C3c1ccccc1Cl)C2=O (stereo not drawn)	1.47	-1.51
CCN(CC)C(=O)Cn1cc(SCC(=O)N(C)c2ccccc2)c2ccccc21	-1.01	.
Cn1c(C(=O)N2CCN(c3ccc(Cl)cc3)CC2)cc2c(=O)n(C)c3ccccc3c21	0.48	0.93
Fc1ccc(CN2CCN(C3CCCCC3)CC2)cc1	-1.3	-0.87
CCNc1sc(S(C)(=O)=O)nc1S(=O)(=O)c1ccc(Cl)cc1	-0.67	-2.06
CCc1ccccc1N1CC(O)=C(c2nc3ccccc3[nH]2)C1=N	-0.38	-2.22
CC(=O)N1c2ccc(S(=O)(=O)N3CCCCC3)cc2CC1C(=O)NCCCN1CCCC1 (stereo not drawn)	1.14	.
OCCCc1nc2n(n1)C(c1ccccc1)C=C(c1ccc(Br)cc1)N2 (stereo not drawn)	.	-0.83

Complete entries, looked up by structure:
Profile of CCN(CC)C(=O)Cn1cc(SCC(=O)N(C)c2ccccc2)c2ccccc21 → TAR Tat displ: -1.01; CDC25B CDK2 inh: .
Profile of Cc1cc(NCCC(C)C)n2ncc(-c3ccc(F)cc3)c2n1 → TAR Tat displ: 0.32; CDC25B CDK2 inh: -1.02

(continued)
SMILES	TAR Tat displ	CDC25B CDK2 inh
O=C(CC1=NS(=O)(=O)c2ccccc2N1)Nc1cccc(Br)c1	1.72	.
CN(C)CCN1C(=O)C(=O)/C(=C(/O)c2ccc(S(=O)(=O)N(C)C)cc2)C1c1ccccc1F (stereo not drawn)	-0.71	-2.21
CCCCOc1ccc(C2=NS(=O)(=O)c3cc(S(=O)(=O)N4CCCCC4)ccc3N2)cc1	0.73	.
Cc1nc(-c2nnc(SCC(=O)c3ccc(Cl)cc3)o2)cs1	.	-0.93
O=c1oc2ccccc2c2c1ncn2CCCN1CCOCC1	1.5	2.12
CC(C)NC(=O)NCCn1cnc2cc(C(=O)NC3CCCC3)ccc21	-0.04	.
COc1ccc2oc(C)c(C(O)c3cc4ccccc4o3)c2c1 (stereo not drawn)	0.48	1.06
COc1ccc(S(=O)(=O)N2CCc3cc4cc(C)ccc4nc32)cc1C	-0.93	-1.91
Cc1nnc(NC(C)C)c2c1nnn2Cc1ccccc1Cl	1.95	-0.79
O=C(C1=C(O)C(=O)N(CCCn2ccnc2)C1c1ccc(Cl)cc1)c1cccs1 (stereo not drawn)	.	-0.9
Cc1cc(-c2ccc(C)c(S(=O)(=O)N3CCCC(C)C3)c2)on1 (stereo not drawn)	-0.8	.
COc1ccc(CNc2oc(C)nc2C#N)cc1	0.96	-0.63
Cc1nn(CCCC(=O)N2CCOCC2)c(=O)c2noc(C)c12	1.53	.
CCc1ccc(C2Nc3c(C(=O)O)cccc3C3C4CCC(C4)C23)cc1 (stereo not drawn)	2.86	-2.51
CC1=CC(=O)C2C(C)(C)CCC[C@]2(C)[C@@]1(O)CCc1ccoc1 (stereo partly drawn)	-0.97	.
O=C(NCc1ccccn1)C(=O)NCC(c1cccs1)S(=O)(=O)c1ccc(Cl)cc1 (stereo not drawn)	0.82	.
COc1ccc(OC)c(N2C(=O)C3C4C=CC(CC4)C3C2=O)c1 (stereo not drawn)	.	-0.25
CC(=O)N1CCc2cc(S(=O)(=O)C(C)CC(=O)N(C)C3CCCCC3)ccc21 (stereo not drawn)	0.14	.
CCOC(=O)Cn1c(-c2cccs2)nc(-c2ccccc2)c1-c1ccccc1	.	-2.92
Clc1ccc(-c2noc3ncnc(NCCCN4CCCc5ccccc54)c23)cc1	0.87	.
COc1ccc(N2CSC3=C(C#N)C(c4c(F)cccc4Cl)CC(=O)N3C2)c(OC)c1 (stereo not drawn)	1.89	0.86
CCC(C(=O)O)n1nc(C)c2sc3ccccc3c2c1=O (stereo not drawn)	3.11	-1.73
N#CC(Cc1ccccc1)Sc1ccccc1 (stereo not drawn)	.	-2.08
Cc1ccc(C2CC(c3c(O)n(C)c(=O)n(C)c3=O)=Nc3ccccc3S2)s1 (stereo not drawn)	0.55	-3.54
CSc1nn2c(=O)cc(CSc3ccc(Cl)cc3)nc2s1	1.67	-1.49
O=C(CSCCc1ccccn1)Nc1ccccc1Br	1.22	-1.54
Cc1ccccc1-c1nc2c(c(=O)[nH]1)Cc1cc(Cl)ccc1O2	1.81	0.15
O=C(NC1CC1)c1ccc2c(c1)CCN2S(=O)(=O)c1ccccc1	1.95	-2.25
COC(=O)CSc1ccc2nnc(CCNS(=O)(=O)c3ccccc3)n2n1	2.86	.
Cc1c(NS(=O)(=O)c2ccc(C(C)(C)C)cc2)c(=O)n(-c2ccccc2)n1C	-0.13	-0.38
COc1ccc(Nc2ncc3c(n2)CCNC3)c(OC)c1	0.55	-0.43
O=c1[nH]c(SCc2cccc3ccccc23)nc2c1CCCC2	-0.02	-2.03
CC1(C)NC(=O)N(CC(O)COc2ccccc2-c2ccccc2)C1=O (stereo not drawn)	3.81	-1.63
CN1C(C(=O)NCc2ccc3c(c2)OCO3)=CC(c2ccc3c(c2)OCO3)=NS1(=O)=O	0.01	-2.3
CCCC(CCC)n1[nH]c(=O)c2c(C)cc(=O)[nH]c21	.	-2.47
Cc1nc(N2CCOCC2)c2c(C(=O)Nc3ccc(Br)cc3F)c(C)oc2n1	0.32	.
O=C1c2ccncc2C(=O)N1Cc1ccc(F)cc1	.	-2.35
Cc1nc(-c2cccnc2)sc1CCNS(=O)(=O)c1ccc(-c2ccccc2)cc1	1.1	.
O=C(Cn1c(=O)oc2ccccc21)Nc1ccc(F)cc1Cl	0.21	.
COc1ccc(S(=O)(=O)NCCc2nnc3ccc(SCc4ccc(C)cc4)nn23)cc1	2.14	.
O=C(NCc1cccnc1)Nc1c[nH]c2ccccc2c1=O	-0.32	-1.34
Cc1ccc(-c2nc3sc(CCNS(=O)(=O)c4ccc(C)c(C)c4)c(C)n3n2)cc1	1.06	.
COc1ccc(-c2[nH]ncc2/C=C(\C#N)S(C)(=O)=O)cc1	.	-1.25
COc1ccc(C2C3=C(CCCC3=O)Nc3[nH]c(=O)[nH]c(=O)c32)cc1OC (stereo not drawn)	.	0.65
Cc1ccc(Cn2c3ccccc3n3cc(C)nc23)cc1	1.32	-0.04
c1ccc(CCN2CCN(c3ncnc4c3cnn4-c3ccccc3)CC2)cc1	2.69	.
COc1cc(C2C3=C(Nc4c2c(=O)[nH]c(=O)n4C)c2ccccc2C3=O)ccc1O (stereo not drawn)	3.64	-2.47
O=C1NC(C(F)(F)F)(C(F)(F)F)N=C2SCCN12	.	-0.87
CN1CCN(C(=O)C2CCN(C(=O)c3cc4sccc4n3C)CC2)CC1	-1.9	-1.28
CC1CCC(NC(=O)C2(C)Cn3c(cc4sccc43)C(=O)N2CCCN2CCCCC2C)CC1 (stereo not drawn)	0.95	-1.36
Cn1c(C(=O)NCCCN2CCN(C3CCCCC3)CC2)cc2sccc21	-0.03	-0.68
CCc1sc(NC2=NS(=O)(=O)c3ccccc32)nc1-c1ccccc1	2.67	-1.23
COc1cccc(C(=O)Oc2ccc3oc(=O)sc3c2)c1	.	-1.68

Reformatted with two lines to a compound: entries from further up
Fields – TAR Tat displ	CDC25B CDK2 inh
> COc1cc(C2C3=C(Nc4c2c(=O)[nH]c(=O)n4C)c2ccccc2C3=O)ccc1O (stereo not drawn)
 : 3.64	-2.47
> O=C1NC(C(F)(F)F)(C(F)(F)F)N=C2SCCN12
 : .	-0.87
> CN1CCN(C(=O)C2CCN(C(=O)c3cc4sccc4n3C)CC2)CC1
 : -1.9	-1.28
> CC1CCC(NC(=O)C2(C)Cn3c(cc4sccc43)C(=O)N2CCCN2CCCCC2C)CC1 (stereo not drawn)
 : 0.95	-1.36

Individual results from the list:
For TAR Tat displ, CC1CCC(NC(=O)C2(C)Cn3c(cc4sccc43)C(=O)N2CCCN2CCCCC2C)CC1 (stereo not drawn) shows 0.95
For CDC25B CDK2 inh, O=C1NC(C(F)(F)F)(C(F)(F)F)N=C2SCCN12 shows -0.87
For TAR Tat displ, c1ccc(CCN2CCN(c3ncnc4c3cnn4-c3ccccc3)CC2)cc1 shows 2.69
For CDC25B CDK2 inh, COc1cc(C2C3=C(Nc4c2c(=O)[nH]c(=O)n4C)c2ccccc2C3=O)ccc1O (stereo not drawn) shows -2.47
For CDC25B CDK2 inh, Cn1c(C(=O)NCCCN2CCN(C3CCCCC3)CC2)cc2sccc21 shows -0.68
